Assay outcomes deposited in PubChem by National Center for Advancing Translational Sciences (NCATS).
hNpr1 antagonist: Natriuretic polypeptide receptor (hNpr1) antagonism - Primary qHTS. 76,000 tested, 1.6% active. Potency, µM (series often up to 46.3 µM), inactives show at the top dose activity change, negative = inhibition, actives largely listed as inhibitors. HEK293 hNpr1 GloSensor cGMP, ANP-stimulated luminescence; active = well fitted inhibition curve with a large enough effect; inconclusive = small, poorly fitted or top-dose-only effect; inactive = no such curve, though single readings can be large or run the other way;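 further: nearly all actives have a fitted effect of over 60% in size; nearly all hits also lower the signal before the agonist is added; a reference antagonist and vehicle were the controls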
Target sequence (P16066 whole entry, looked up): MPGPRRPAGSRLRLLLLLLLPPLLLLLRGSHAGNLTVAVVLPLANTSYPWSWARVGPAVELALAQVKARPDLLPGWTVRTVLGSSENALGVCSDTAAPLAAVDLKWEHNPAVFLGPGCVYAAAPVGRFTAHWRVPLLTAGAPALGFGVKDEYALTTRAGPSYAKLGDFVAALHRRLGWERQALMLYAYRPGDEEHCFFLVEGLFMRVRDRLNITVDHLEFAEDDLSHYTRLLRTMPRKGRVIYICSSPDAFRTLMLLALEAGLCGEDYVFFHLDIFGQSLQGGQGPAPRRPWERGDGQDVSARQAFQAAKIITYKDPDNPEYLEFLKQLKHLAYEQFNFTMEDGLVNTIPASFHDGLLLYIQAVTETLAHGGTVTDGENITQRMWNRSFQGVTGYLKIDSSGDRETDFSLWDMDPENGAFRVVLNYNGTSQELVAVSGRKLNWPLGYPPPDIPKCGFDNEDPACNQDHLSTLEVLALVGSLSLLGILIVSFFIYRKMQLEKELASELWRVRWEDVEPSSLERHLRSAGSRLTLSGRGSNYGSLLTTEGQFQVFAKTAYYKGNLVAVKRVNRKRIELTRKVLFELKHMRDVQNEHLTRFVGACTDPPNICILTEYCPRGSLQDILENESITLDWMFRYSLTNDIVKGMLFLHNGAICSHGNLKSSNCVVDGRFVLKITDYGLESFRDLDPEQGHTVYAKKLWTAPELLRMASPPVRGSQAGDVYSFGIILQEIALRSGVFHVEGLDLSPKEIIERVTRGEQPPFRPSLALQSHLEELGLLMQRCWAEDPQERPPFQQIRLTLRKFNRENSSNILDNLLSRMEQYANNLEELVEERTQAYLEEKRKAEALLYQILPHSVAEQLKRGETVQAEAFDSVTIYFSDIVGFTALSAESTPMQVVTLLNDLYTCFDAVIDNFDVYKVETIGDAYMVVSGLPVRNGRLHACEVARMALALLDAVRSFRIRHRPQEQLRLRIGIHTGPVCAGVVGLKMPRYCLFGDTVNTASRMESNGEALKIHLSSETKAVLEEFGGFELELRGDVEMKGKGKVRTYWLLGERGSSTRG
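HEK293 cells stably expressing human Npr1 and cGMP GloSensor pGS-40F, loaded 2 h with 2% GloSensor reagent, given compound 30 min at room temperature. Luminescence read before and 20 min after 0.1 nM hNppA.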
* hit, by the source's call; ? = inconclusive; [ ] = dose if it differs, or a comment. On the % scale 0 is the no-effect control and ±100 the full control effect; potency means the concentration at half of the fitted maximal effect.

SMILES	hNpr1 antagonist
CNC(=O)[C@@H](C1CCCCC1)N1CCC[C@H]1C(=O)NCCN1CCOCC1	5%[70.6 µM]
COc1ccc(CN2Cc3cc(NC(=O)c4c(F)cccc4F)ccc3OCC2=O)c(OC)c1	-16%
CCCCNC(=O)CC(c1cccc(OC)c1)c1c[nH]c2ccccc12 (centres undefined)	-7%
COCc1noc(CC2CN(C(=O)c3cn(-c4ccccc4)nn3)CCO2)n1 (centres undefined)	3%
CC(C)CN1CCN(C(=O)c2cc3c(s2)CCN(C(=O)c2ccc(Cl)cc2)C3)CC1	-2%
CCNc1cc(N2CCC(CCC(=O)NCc3c(C)nn(C)c3C)CC2)ncn1	-1%
COc1ccc(-c2ccc3nc(-c4ccc(C)c(F)c4)oc3c2)c(OC)c1OC	-1%
CCC(=O)N1CCc2sc(C(=O)NC3CCN(Cc4ccccc4)CC3)cc2C1	-20%
COc1ccc(C(=O)N2CCC(Cc3nc(C(C)C)no3)CC2)cc1	?
Cc1noc(-c2cccn3c(CNC(=O)c4ccco4)nnc23)n1	2%
O=C1NCCCCCCN(C(=O)Cc2cccnc2)[C@@H]2CCC[C@H]12	-1%
Fc1ccc(CN2CC[C@H](c3nc4ccc(C(F)(F)F)cc4[nH]3)C2)cc1F	?
COc1ccccc1N1CCN(C(=O)C[C@@H]2CCNC[C@@H]2Cc2cc(CN3CCOCC3)on2)CC1	1%
Cc1cc(F)ccc1NC(=O)CN1C(=O)NC2(CCS(=O)(=O)CC2)C1=O	7%
Cc1noc(C)c1CCC(=O)N1CCN(Cc2ccccc2)CC(O)C1 (centres undefined)	0%
CC(=O)N1CCC(N2CCOC[C@H]2c2ncc(-c3ccc(C)cc3)[nH]2)CC1	6%[70.6 µM]
COC(=O)[C@@H]1Cc2nc[nH]c2CN1Cc1ccc(Cl)cc1	1%[70.6 µM]
c1ccc(-c2ccc(CNCc3cccs3)o2)cc1	-25%
COc1ccc([C@H]2C[C@@H](O)[C@@H](O)[C@@H]2NC(=O)c2nc3ccccc3s2)cc1	-26%[70.6 µM]
c1ccc(-c2nc(CC3CCNC3)no2)cc1 (centres undefined)	-3%
O=C1CCN(C(=O)NCCc2ccccc2)CCCCCCN1	?
O=C(c1cccnc1)N1CCCCC1c1nc(C2CC2)n[nH]1 (centres undefined)	0%
CCOCCOc1ccccc1C(=O)N1CC[C@@](O)(COC)C(C)(C)C1	1%
O=C(C1CCCC1)N1CC(c2nc(CCOCC3CCOCC3)no2)C1	-3%
Cc1ccc(C(=O)N2CCCCCNC(=O)[C@@H]3CCCC[C@@H]32)cn1	1%
CN(C)[C@@H]1CN(Cc2ccc(C#N)cc2)C[C@H]1CO	3%
Cc1ccccc1CCN1CCCC(CN(C)C(=O)c2cc3ccccc3[nH]2)C1 (centres undefined)	?
CN1CCc2nc(N3CCN(C(=O)CCC4CCCC4)CC3)sc2C1	-10%
COc1ccc(NC(=O)CN2C(=O)C(c3ccccc3)=NC23CCCCC3)cc1	2%
Cc1noc(CN2CCCn3nc(C(O)C4CCC4)cc3C2)n1 (centres undefined)	5%
O=C1c2cnc(-c3ccc(O)c(F)c3)nc2OCCN1c1ccccc1	-25%[70.6 µM]
CN(Cc1ccccc1)C(=O)Cc1ccc(N(Cc2ccccc2)C(=O)c2ccco2)cc1	-23%
CCn1ncnc1C(C)NC(=O)c1cn(CCN2CCNCC2)nn1 (centres undefined)	3%
COc1ccc(-c2ccc3c(c2)C(=O)N2CC[C@H](NC(=O)NC(C)C)[C@H]2C(=O)N3)c(OC)c1	-5%
OC1CC(c2cc(N3CCC(c4nc5ccccc5[nH]4)CC3)ncn2)C1 (centres undefined)	-15%
O=C(NC1CCC1)c1c(OCC2CC2)cc(=O)n2c1CCOCC2	-12%
O=C(CN1C(=O)NC2(CCOCC2)C1=O)Nc1ccc2c(c1)CCC2	0%
CC(C)C(=O)N1CCC(N2C[C@H](O)C[C@H]2C(=O)NC2CCCCC2)CC1	2%
O=C(O)Cn1ccc2cc(OCC3CCN(C(=O)COc4ccccc4)CC3)cnc21	3%[70.6 µM]
COC(=O)C1CCN(C(=O)CC[C@H]2CNC(=O)[C@@H]3[C@@H](CCN3Cc3cccs3)N2C)CC1	-15%

Sorted by SMILES length (falling): 14 of the compounds above.
SMILES	hNpr1 antagonist
COc1ccc(-c2ccc3c(c2)C(=O)N2CC[C@H](NC(=O)NC(C)C)[C@H]2C(=O)N3)c(OC)c1	-5%
COC(=O)C1CCN(C(=O)CC[C@H]2CNC(=O)[C@@H]3[C@@H](CCN3Cc3cccs3)N2C)CC1	-15%
CN(Cc1ccccc1)C(=O)Cc1ccc(N(Cc2ccccc2)C(=O)c2ccco2)cc1	-23%
CC(C)C(=O)N1CCC(N2C[C@H](O)C[C@H]2C(=O)NC2CCCCC2)CC1	2%
O=C(O)Cn1ccc2cc(OCC3CCN(C(=O)COc4ccccc4)CC3)cnc21	3%[70.6 µM]
Cc1ccc(C(=O)N2CCCCCNC(=O)[C@@H]3CCCC[C@@H]32)cn1	1%
OC1CC(c2cc(N3CCC(c4nc5ccccc5[nH]4)CC3)ncn2)C1 (centres undefined)	-15%
O=C(CN1C(=O)NC2(CCOCC2)C1=O)Nc1ccc2c(c1)CCC2	0%
O=C1c2cnc(-c3ccc(O)c(F)c3)nc2OCCN1c1ccccc1	-25%[70.6 µM]
O=C(C1CCCC1)N1CC(c2nc(CCOCC3CCOCC3)no2)C1	-3%
O=C(NC1CCC1)c1c(OCC2CC2)cc(=O)n2c1CCOCC2	-12%
CN(C)[C@@H]1CN(Cc2ccc(C#N)cc2)C[C@H]1CO	3%
CCn1ncnc1C(C)NC(=O)c1cn(CCN2CCNCC2)nn1 (centres undefined)	3%
Cc1noc(CN2CCCn3nc(C(O)C4CCC4)cc3C2)n1 (centres undefined)	5%

A few values from above.
Value of `CC(C)C(=O)N1CCC(N2C[C@H](O)C[C@H]2C(=O)NC2CCCCC2)CC1` under hNpr1 antagonist: 2%
Value of `CCn1ncnc1C(C)NC(=O)c1cn(CCN2CCNCC2)nn1` (centres undefined) under hNpr1 antagonist: 3%

The list goes on.
SMILES	hNpr1 antagonist
O=C1Nc2ccccc2CC12CCN2Cc1cccc2ccccc12 (centres undefined)	-7%[70.6 µM]
CCCCCC(=O)N1CC[C@@H](CC(=O)NCc2ccc(F)cc2)[C@@H](CC)C1	?
CCCCC(=O)N(C)CC1CCOCC1	0%
CCn1cnnc1CC1CCN(C(=O)C2CCCCC2)C1 (centres undefined)	2%
O=c1[nH]nc2n1CCN(Cc1ccc(F)c(F)c1)CC2	-2%
COc1ccc(-c2[nH]nc3ncc(-c4ccc(C)cc4)nc23)cc1F	-4%[70.6 µM]
CNC(=O)[C@@H]1CN(C(=O)c2cncn2C)C[C@H]1COC	1%
COc1ccc(CN2CC3(CCN(S(=O)(=O)c4ccc(F)cc4)CC3)C2=O)cc1	-4%
COc1cc(-c2ccnc3nc(CCC4CCCC4)nn23)cc(OC)c1OC	-7%
Cc1noc(-c2ccn3c(CNC(=O)c4ccc(F)c(Cl)c4)nnc3c2)n1	8%
O=C(Nc1ccc(-c2nnc3n2CCCC3)cc1)c1ccccc1F	0%
Cc1noc(C)c1-c1cc2c(c(-c3cnn(C)c3)c1)C(=O)N(C)C2	1%[70.6 µM]
CCn1nccc1C(=O)N1C[C@@H](COC)[C@H](c2nc(C)no2)C1	-2%
Clc1cnccc1CN1CCNc2cnc(-c3ccccc3)cc2C1	28µM*
O=C1Cc2c(-c3ccccc3OCc3ccccc3)n[nH]c2CN1Cc1ccccc1	-21%[70.6 µM]
O=C1CCN(Cc2ccncc2)CCCC(C(=O)N2CCN(c3ccccn3)CC2)CCN1 (centres undefined)	4%
Cc1cccc(NC(=O)Cn2c(=O)c(-c3noc(C)n3)c3n(c2=O)CCCC3)c1	0%
COc1ccc(-c2cc(-c3cnc4[nH]ccc4c3)cn3cncc23)cc1	-19%[70.6 µM]
CN(C(=O)c1ccccc1F)C1CCCc2ccccc21 (centres undefined)	-9%[70.6 µM]
COCCN1C(=O)c2ccccc2C(C(=O)Nc2ccc3[nH]ccc3c2)C12CCCC2 (centres undefined)	-6%
Cc1ccccc1-c1onc(C)c1C(=O)NCc1cc(F)cc(F)c1	3%
Cc1ccccc1NC(=O)CC(=O)N1CCC(Oc2ccccc2C)CC1	2%
COCCNC(=O)C1N(C(C)C)C(=O)C12CCCCC2 (centres undefined)	0%
COc1ccc(-c2noc([C@@H]3CCCN3C(=O)c3ccc(Cl)cc3)n2)cc1	0%
COCc1nn(CC(=O)NCc2ccc(C)o2)c(=O)n1-c1ccccc1	4%
CN1C[C@@H](NC(=O)Nc2ccc(F)cc2F)C[C@H]1c1nc(-c2ccncc2)no1	-30%[70.6 µM]
COCCC(=O)N1CCCC(Cc2nc(C3CCOCC3)no2)C1 (centres undefined)	-18%
Cc1ccc(C(=O)N2CCOC(CN(Cc3ccco3)C(=O)c3ccc(F)cc3)C2)cc1 (centres undefined)	2%
O=C(NCCC1CCN(C(=O)Nc2ccc(F)cc2)CC1)c1ccco1	6%
O=C(CC1CCN(S(=O)(=O)c2ccc3c(c2)CCCC3)C1)NCc1ccccc1 (centres undefined)	?
O=C(c1cccc(Cl)c1)N1CCC(n2cc(-c3nc(-c4ccccc4)no3)nn2)C1 (centres undefined)	-16%
COc1ccc(C(=O)N[C@@H]2CCC[C@@H]2C(=O)NCc2cccc(OC)c2OC)cc1	2%
O=C(Nc1ccc([C@H]2OCC(=O)N(CC3CCCCC3)[C@@H]2CO)cc1)c1ccccn1	?
Cn1ccnc1CN1C[C@@H]2C[C@H]1C(=O)N(Cc1cccnc1)c1ccccc1O2	7%[70.6 µM]
O=C(Nc1nccs1)[C@@H]1O[C@H](CCN2CCCCC2)CC[C@@H]1O	1%[70.6 µM]
c1cncc(Nc2cc3c(cn2)CN(CC2CCOCC2)CCN3)c1	3%[70.6 µM]
CN1C(=O)C(c2ccccc2)CC12CCN(C(=O)C1CCC1)CC2 (centres undefined)	6%
CCCNC(=O)N(C1CCOCC1)C1CCN(C(=O)c2ccc3ncccc3c2)CC1	-15%
CCN1CCN(c2nccc(Cl)n2)C(=O)C1	10%[70.6 µM]
CC(=O)N1C[C@@H]2CCCN3CCC[C@@H]([C@H]23)[C@H]1CCCC(=O)NC(C)C	7%
COc1ccccc1-c1ncc2c(n1)OCCN(c1cccc(C(F)(F)F)c1)C2=O	-5%[70.6 µM]
CCn1ccnc1CN(C)c1ccc(-c2nc(C3CC3)no2)cn1	-2%
O=C1CCC2(CCN(C(=O)c3ccoc3)CC2)CN1CC1CCCO1 (centres undefined)	0%
Fc1ccc(CN2CCC(N3CC(OCC4CC4)C34CCOCC4)CC2)c(F)c1 (centres undefined)	2%
Cc1ccc(NC(=O)Cn2c(N3CCCCC3)nc(C)c(C)c2=O)cc1Cl	2%
CC#CCn1cc2c3c(cccc31)[C@H](CC(C)C)N[C@H](C(=O)N1CCC(O)CC1)C2	-4%[70.6 µM]
COc1ccc(N2CC(c3noc(-c4cc(Cl)ccc4OC)n3)CC2=O)cc1 (centres undefined)	0%
COc1cccc(CCC(=O)N2CCC(OCC3CC3)C2)c1 (centres undefined)	6%
COc1ccc(-c2nc(-c3nnn4c3COC(c3ccc(C)cc3)C4)no2)cc1F (centres undefined)	-13%
O=C(CCC1CCCN(S(=O)(=O)c2ccccc2F)C1)NCCc1ccccc1 (centres undefined)	-3%

Further entries:
SMILES	hNpr1 antagonist
COc1cccc(C(=O)N2CCC(Oc3ccccc3-c3nc(C4CCOCC4)no3)C2)c1 (centres undefined)	-4%
Cc1ccc(C(=O)N2CCCC(c3nc(C(C)C)no3)CCNC(=O)CC2)s1 (centres undefined)	9%
CCCNC(=O)N1CCC(=O)N(CC)C2(CCOCC2)C1	5%
CCOc1ccccc1C(=O)NCc1nnc2cc(-c3nc(CC)no3)ccn12	6%
CCCNC(=O)N1CCC(O)(c2csc(CN3CCN(C)CC3)n2)CC1	1%[70.6 µM]
Cc1noc([C@@H]2CN(CC3CC3)C[C@H]2CO)n1	-1%
CCc1nc(-c2c3n(c(=O)n(CC(=O)Nc4ccccc4Cl)c2=O)CCCC3)no1	-9%
Cc1cccc(C(=O)N2CCCCC2c2n[nH]c(C)n2)c1 (centres undefined)	4%
COc1ccc(C(=O)NC2CCN(c3cc(-c4ccc(F)cc4)[nH]n3)CC2)cc1	-4%
CC(=O)NC[C@H]1CCN(C(=O)c2cncc(Br)c2)C[C@H]1N(C)C	6%
Cc1ccsc1C(=O)N1CCc2c(nc3cc[nH]n3c2=O)C1	2%
CC(NC(=O)CCC(=O)c1ccc(F)cc1)C(=O)N1CCN(c2ccccn2)CC1 (centres undefined)	2%
COc1ccc(Cl)cc1-c1ccc2c(c1)C(=O)N1CCN(C(=O)C3CCCC3)C[C@H]1C(=O)N2	-7%
Fc1ccccc1-c1noc(-c2ncn3c2COC(c2ccccc2Cl)C3)n1 (centres undefined)	-12%
COc1ccc(-c2nc(C)nc3c2CN(C(=O)c2ccc(Cl)nc2)CC3)cc1	-7%
COCCOc1cccc(Cn2cnc(-c3ccccc3)c2-c2cnc[nH]2)c1	?
CN(C)c1cccc(Oc2nnnn2[C@H]2CO[C@H]3[C@@H]2OC[C@@H]3NC(=O)NCc2ccccc2)c1	3%
CC(C)c1ccc(OCc2nnc(C(=O)N3CCC[C@@H]3C)n2-c2cccnc2)cc1	-2%[70.6 µM]
CCc1ccc(CNC(=O)c2ccc3c(c2)N(CC)C2CCCCCN2C3=O)cc1 (centres undefined)	-8%
COCc1nc(C2CCCN(C(=O)COc3ccc(F)cc3)C2)no1 (centres undefined)	-10%
CCC(c1cccs1)N1C(=O)[C@H]2CN(S(=O)(=O)c3ccccc3Cl)C[C@H]2C1=O (some centres undefined)	-13%

Only part of the results is shown, so the mix of outcomes need not match the whole.
